From PubChem
RanGTP-Imp inh: disruptors of Ran-importin-beta complex formation – biochemical, FRET, CFP-Ran, YFP-importin-beta, homogeneous, primary screen | inhibition, % (concentration not given with the values) | cell-free CFP-Ran/YFP-importin-beta FRET ratio | 300,000 compounds, 1.1% hits;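 active = most replicates above 15%; inconclusive = exactly half above 15%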;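 note: 0% = DMSO wells and 100% = Ran loaded with GDP instead of GTP; wells of about 40 µL received 100 nL stock; the first replicate is given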
Calb FLC: affects C. albicans growth with fluconazole; 300,000 compounds, 0.57% hits; AID 1979; growth inhibition, % (concentration not given with the values); C. albicans CaCi-2 (fluconazole-resistant clinical isolate) + fluconazole, Alamar Blue growth, 48 h;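 active = most replicates above 75%; inconclusive = exactly half above 75%; inactive = most below 75%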;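 note: all wells also contain fluconazole at 8 µg/ml as a sub-toxic cotreatment; 0% = median of DMSO wells and 100% = median of geldanamycin control wells; wells of about 8 µL received 7.5 nL stock; the first replicate is given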
LANA-H2A inh: blocks KSHV LANA binding to histone H2A/H2B; 320,000 compounds, 0.6% hits; cell-free LANA-H2A/H2B peptide, fluorescence polarization; Q9QR71; inhibition, % (concentration not given with the values); in the data active = inhibition mostly above about 10%, no sharp cut-off; inactive = mostly below about 6.7%;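 note: stock transfer was 7.5 nL into about 10 µL; 0% = median of vehicle wells and 100% = median of positive control wells; one replicate is shown; the record names a cut of 25% in any replicate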
Target sequence (Q9QR71 whole entry, looked up): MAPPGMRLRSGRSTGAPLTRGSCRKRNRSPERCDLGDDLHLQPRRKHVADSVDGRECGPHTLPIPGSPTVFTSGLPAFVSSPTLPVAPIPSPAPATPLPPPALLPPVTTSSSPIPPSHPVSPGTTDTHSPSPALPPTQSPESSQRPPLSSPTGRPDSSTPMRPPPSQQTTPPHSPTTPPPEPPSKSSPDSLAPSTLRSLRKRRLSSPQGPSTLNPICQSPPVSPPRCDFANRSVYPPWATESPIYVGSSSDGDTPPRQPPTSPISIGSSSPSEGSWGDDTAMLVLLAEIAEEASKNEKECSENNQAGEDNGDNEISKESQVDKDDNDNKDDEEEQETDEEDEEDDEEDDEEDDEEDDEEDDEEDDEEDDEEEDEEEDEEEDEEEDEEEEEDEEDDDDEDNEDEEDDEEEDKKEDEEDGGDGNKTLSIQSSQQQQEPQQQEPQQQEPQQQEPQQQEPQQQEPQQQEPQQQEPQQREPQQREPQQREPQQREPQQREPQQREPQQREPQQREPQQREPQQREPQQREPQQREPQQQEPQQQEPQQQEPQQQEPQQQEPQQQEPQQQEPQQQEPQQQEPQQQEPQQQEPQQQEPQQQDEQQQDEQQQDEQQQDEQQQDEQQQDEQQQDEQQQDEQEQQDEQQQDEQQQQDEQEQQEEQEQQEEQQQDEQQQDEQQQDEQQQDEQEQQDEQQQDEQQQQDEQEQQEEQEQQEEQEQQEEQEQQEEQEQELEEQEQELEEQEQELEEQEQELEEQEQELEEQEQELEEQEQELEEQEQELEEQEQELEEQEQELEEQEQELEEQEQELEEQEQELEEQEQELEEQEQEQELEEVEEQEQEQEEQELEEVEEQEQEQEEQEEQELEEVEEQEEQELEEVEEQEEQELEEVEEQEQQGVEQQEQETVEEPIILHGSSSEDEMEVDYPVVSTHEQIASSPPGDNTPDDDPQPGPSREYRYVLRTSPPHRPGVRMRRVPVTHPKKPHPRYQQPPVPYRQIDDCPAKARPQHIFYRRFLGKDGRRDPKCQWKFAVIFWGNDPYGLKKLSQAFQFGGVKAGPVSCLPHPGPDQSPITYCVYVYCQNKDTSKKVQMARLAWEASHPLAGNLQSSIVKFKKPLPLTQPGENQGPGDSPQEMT
HNF4A DNA FP: change in binding of human HNF4 alpha to DNA. activity change, % at 10 µM. 360,000 compounds, 0.3% hits. AID 1224865. HNF4a-FITC DNA binding, fluorescence polarization, 1 h; in the data active = activity change above about 30%, passing the limit was not always enough;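 note: controls were the assay level and a saturating level of protein; the project sought stronger binding though the title names inhibitors; some compounds called inactive have numbers as strong as hits; positive values seem to mean higher polarization but the record does not say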
Vif TR-FRET: HIV-1 Vif–A3G interaction blockers – biochemical, TR-FRET, GST-Vif 1-94, biotin-A3G peptide, dose response retest, primary screen (AID 1117319) | TR-FRET GST-Vif / biotin-A3G peptide binding; higher % means a stronger effect; test concentration not given here; strong numbers were not always called active | 260,000 compounds, 0.57% hits | inhibition, %, or IC50 in µM where a hit was titrated;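 active = above the screen mean plus three standard deviations and confirmed in dose response; inconclusive = results disagree or hit not tested in dose response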;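 note: Vif residues 1-94 fused to GST binding biotinylated APOBEC3G peptide 110-148; 0% = full assay without inhibitor and 100% = GST in place of GST-Vif; retest series ran down from 100 µM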
Beta2AR agonist: activates human beta-2 adrenergic receptor causing internalization; response, % (test concentration not listed); 340,000 compounds, 0.43% hits; Am2.2-beta2AR cells, FAP receptor internalization, flow cytometry; reference of the scale not given here; P07550;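 active = response above a set limit, near 3 SD of response in nonfluorescent compounds, cut at about 42% in these data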;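 note: stock transfer was 100 nL into about 11 µL; a reference agonist was the positive control; negative values mostly stem from fluorescent compounds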
ALR inh: human ALR oxidase inhibition via reduced H2O2; purified ALR, DTT oxidation, H2O2 HRP-luminol luminescence; inhibition, % (test concentration not listed); 290,000 compounds, 3.8% hits;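 active = mean and each replicate at 75% or more; inconclusive = only one of the two met; inactive = neither met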;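 note: stock transfer was 7.5 nL into about 7.5 µL; 0% = neutral wells and 100% = wells with inactivated enzyme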
* hit, by the source's call; ? = inconclusive; . = no result given; + = active, no number.

Order of results – RanGTP-Imp inh	Calb FLC	LANA-H2A inh	HNF4A DNA FP	Vif TR-FRET	Beta2AR agonist	ALR inh
- COc1ccccc1N1CCN(C(=O)c2cc(C)on2)CC1
    -2.0	-7	4.6	-0.8	.	-13	25
- O=C(Cc1ccsc1)N1CCN(S(=O)(=O)c2cc(C(F)(F)F)cc(C(F)(F)F)c2)CC1
    8.2	3	0.7	-1.8	-1%	5	-11
- O=C(NC1CCCC1)C(c1ccco1)N(Cc1ccccc1)C(=O)c1csnn1 (stereo not given)
    0.4	48	-3.0	1.1	66%	-8	.
- Cc1ccc2cc(-c3noc(C4CCCO4)n3)c(=O)[nH]c2c1 (stereo not given)
    -3.4	-4	-0.7	-1.7	7%	-5	-5
- C#CCN1C=CC(=O)[C@@H](OC(=O)Nc2ccc(OC)cc2)[C@H]1c1ccccc1Br
    .	.	.	-0.5	-2%	0	.
- Cc1cc(C)c(NC(=O)/C=C\C(=O)O)c(Cl)c1
    ?	0	-3.6	-0.5	0%	0	4
- Cc1csc(=O)n1CC(=O)OCC(=O)NCc1ccc(F)cc1
    ?	.	-2.9	1.8	-5%	-5	0
- CCc1cc2c(N3CCN(C(=O)c4ccco4)CC3)ncnc2s1
    -0.7	28	-1.7	0.0	.	-15	.
- COc1ccc(C2C(C(=O)N3CCN(C)CC3)c3cc(OC)c(OC)cc3C(=O)N2C)cc1 (stereo not given)
    2.3	-6	+	-0.4	5%	3	-2
- NC(=O)c1ccccc1NS(=O)(=O)c1ccc(F)cc1
    -0.2	2	-6.5	0.5	-12%	-7	2
- Cc1cc(C)nc(NC(=S)Nc2ccc(F)cc2F)c1
    0.7	-20	-0.9	-3.2	-7%	6	.
- COc1ccc(C(CCNC(C)c2ccccc2)c2ccc(F)cc2)cc1 (stereo not given)
    2.0	30	-7.6	0.1	19%	42*	-42
- CCOC(=O)c1c(CC(C)C)csc1NC(=O)COC(=O)C1=NNC(=O)CC1
    -1.0	-7	-7.6	1.4	8%	-5	-57
- CCCCNC(=O)CCC(=O)NNc1nc2ccccc2c2nc(-c3ccccc3)nn12
    5.6	-2	.	2.9	-2%	2	.
- Cc1cccc(C)c1NC(=O)CN(C)C(=O)CN1C(=O)NC(C)(C)C1=O
    .	.	0.6	5.4	4%	4	-1
- Cc1ccc(-n2c(SCC(=O)Nc3cccc(S(N)(=O)=O)c3)nc3ccccc32)cc1
    4.3	-1	0.9	5.3	7%	8	-4
- N#CCC(=O)Nc1ccc(C(=O)NCC2(N3CCOCC3)CCCCC2)cc1
    .	.	0.8	7.7	1%	-1	99*
- C(=C\c1ccccc1)/C=N/Nc1nc(N2CCCCC2)nc(N2CCCCC2)n1
    ?	93*	-1.3	0.5	1%	5	-13
- O=C(Cc1csc(-c2ccc(Cl)cc2)n1)Nc1cccc(S(=O)(=O)NC2=NCCC2)c1
    .	.	-3.0	6.5	3%	7	-6
- COC(=O)c1cc(Br)ccc1NC(=O)CSCc1c(C)noc1C
    .	.	0.5	0.1	?	4	.
- COc1ccc(CNS(=O)(=O)c2ccc3c(c2)NC(=O)CS3)cc1
    -0.7	1	-5.8	-5.3	0%	1	-12
- Cc1cc(C(=O)Nc2nnc(C3CCCCC3)s2)cs1
    -3.5	5	-2.5	0.9	31%	-5	0
- O=C1C2C3C=CC(O3)C2C(=O)N1Cc1ccncc1 (stereo not given)
    .	.	.	-3.5	1%	-8	.
- O=C(CCc1nnc2ccc(NCc3ccco3)nn12)N1CCCCC1
    3.5	3	-2.3	1.1	.	-18	4
- Cc1cc(Cl)ccc1C(=O)C1CCCN(C(=O)CCN2CCCO2)C1 (stereo not given)
    0.0	-51	-0.4	0.8	.	10	-3
- O=S(=O)(NC1CCCCC1Nc1ccccc1)c1ccccc1 (stereo not given)
    0.3	?	0.9	1.0	0%	10	99*
- CCn1c(=O)cc(OCC(=O)NC2CCCCC2)c2ccccc21
    ?	-25	-0.9	1.8	5%	2	-4
- Cc1ccc(CNC(=O)c2ccc(N3CCCC3=O)cc2)cc1
    -0.2	-19	-3.3	12	-6%	-14	-27
- CC(C)N1CC(COc2ccc(Cl)cc2Cl)OC1=O (stereo not given)
    0.5	9	5.7	1.2	-11%	-14	0
- Cc1nn2c(Nc3ccc(F)cc3)c3c(nc2c1-c1ccccc1)CCC3
    2.8	-11	1.6	1.7	-4%	-11	-4
- Cc1cc(/C=C2/NC(=O)NC2=O)c(C)n1-c1ccncc1
    -3.6	-23	-2.9	-2.0	12%	6	-10
- CN(CCOc1ccccc1)C(=O)CNC(=O)c1ccc(C(C)(C)C)cc1
    .	.	-1.7	3.5	-10%	-2	-1
- COc1ccc(/C=N/n2c(C)nnc2C)c(OC)c1
    -1.6	-4	-4.7	-2.9	3%	-3	-18
- COc1ccnc(Oc2ccccc2)c1C(=O)N/C=N/OCc1ccccc1
    4.1	-25	-4.1	-0.8	0%	-11	-1
- O=C(Nc1cccc(Cl)c1)c1ccc(=O)[nH]n1
    4.8	4	0.5	3.3	-8%	0	.
- OC(CN1CCCCC1)CN1CCCCC1
    3.0	5	-11	-2.9	64%	8	-13
- C/C=C(\C)CN1CCN(c2ccc(C)cc2)CC1
    7.0	6	-1.3	2.1	1%	-10	14
- CCOC(=O)C[C@H]1c2ccc(C(F)(F)F)cc2S(=O)(=O)N1c1cccc(OC)c1
    6.4	-5	1.0	3.5	.	-5	-2
- CSc1nc(C)c2c(n1)N(c1ccc(C(C)C)cc1)CC2
    -1.9	-15	5.9	1.4	-5%	20	-16
- O=C(CCCN=C1NS(=O)(=O)c2ccccc21)OCC(=O)N1CCc2ccccc21
    -1.0	2	-0.4	-5.2	3%	-6	-15
- COc1cc2cc(CN(C(=O)NC3CCCCC3)C3CCCC3)c(=O)[nH]c2cc1OC
    0.5	.	-0.1	-1.6	-12%	-1	-4
- COC(=O)[C@@H](NC(=O)Nc1ccccc1F)C(C)C
    ?	-21	3.0	7.3	-4%	5	-3
- Cn1c(SCc2ccccn2)nnc1-c1ccccc1
    -0.8	-13	7.8	3.3	2%	-2	-4
- CCSc1nc2c(c(=O)[nH]1)C(c1ccncc1)C(C(=O)OC)=C(C)N2 (stereo not given)
    1.1	-15	0.4	-0.6	5%	0	-9
- C=CCn1c(SCC(=O)NCC2CCCO2)nc2sc(CC)cc2c1=O (stereo not given)
    .	.	2.7	1.3	.	-7	.
- Cc1cccc(NC(=O)CN2C(=O)N/C(=C\c3cccn3-c3cccc(C(=O)O)c3)C2=O)c1
    2.0	-4	3.5	0.6	4%	2	9
- COc1ccc(OC)c(C(=O)c2ccc(C(=O)Nc3cccc4ccccc34)cc2)c1
    1.5	-10	0.8	-2.5	2%	8	-6
- Cc1ccc(-c2noc(CN(C(=O)CCN3C(=O)c4ccccc4C3=O)C(C)C)n2)cc1
    -3.9	2	-3.5	-2.7	8%	-17	-8
- Cc1cccc(-c2nnn(C/C(N)=N/O)n2)c1
    5.6	-2	3.1	-0.5	12%	1	-1
- O=C(CP(=O)(c1ccccc1)c1ccccc1)N1CCCCC1
    -1.7	-7	-2.2	-3.0	1%	3	-5
- CC(OC(=O)c1nn(C)c(=O)c2ccccc12)C(=O)NCc1ccc2c(c1)OCO2 (stereo not given)
    2.1	-4	1.0	-3.5	4%	-2	-13
- Cc1ccc(OCC(=O)Nc2ccc(S(=O)(=O)N(C)C3CCN(C)CC3)cc2)c(C)c1
    6.9	10	-6.1	3.6	0%	11	-6
- COc1ccccc1C(=O)NNC(=O)C(=O)NC1CCCCC1
    6.2	0	-1.9	0.8	.	7	1
- Cc1oc2cc3oc(=O)ccc3cc2c1C
    -1.0	-5	-5.4	1.2	-2%	14	1
- Nc1c2c(nc3sc4c(c13)CCCC4)-c1ccccc1CC2
    4.5	-3	-0.6	-3.5	-18%	15	7
- COc1ccc(CCNC(=O)COC(=O)/C=C/c2ccc(OC)c(OC)c2)cc1
    1.2	-11	7.4	1.6	6%	0	.
- O=C(c1ccc(Cn2c(=S)[nH]c3cc4c(cc3c2=O)OCO4)cc1)N1CCN(c2ccccc2)CC1
    -2.3	2	-6.4	7.9	-1%	7	-15
- COc1cccc(/C=N/NC(=O)CC(=O)NCCc2ccc(OC)c(OC)c2)c1
    11	-1	7.6	-0.4	-2%	.	1
- Cc1ccc(C(=O)CSc2nc(C)cc(C)c2C(N)=O)cc1
    .	.	-7.2	2.2	?	3	6
- CC1=Nc2ccc(Br)cc2C(c2ccccc2)N1CC(=O)NN (stereo not given)
    -2.1	8	-1.2	-5.6	4%	-2	31

Later entries.
Order of results – RanGTP-Imp inh	Calb FLC	LANA-H2A inh	HNF4A DNA FP	Vif TR-FRET	Beta2AR agonist	ALR inh
- Cc1cccc(C(C)C)c1NC(=O)c1cc2ccccc2o1
    2.0	16	0.9	3.9	5%	10	-6
- O=C(CCC(=O)c1ccc[nH]1)c1ccc(Cl)cc1
    -3.3	-17	-3.3	4.0	20%	-1	.
- Cc1nc(S/C(C(=O)O)=C2/C(=O)Nc3ccccc32)n[nH]1
    -4.5	9	2.3	-0.2	3%	8	9
- COc1ccc(CCNC(=O)CCCCCN2C(=O)c3ccccc3C2=O)cc1
    -1.9	-1	-2.4	-0.5	-6%	3	-16
- CCCc1nnc(SCC(=O)Nc2ccc(OC)cc2)n1N
    -3.6	0	3.9	7.5	3%	-1	-12
- Cc1cccc(C(=O)NNC(=O)c2ccccc2[N+](=O)[O-])c1
    -0.6	0	-3.4	-4.5	.	1	-4
- COCCNC(=O)C(c1ccc(C)o1)N(Cc1ccccc1)C(=O)Cn1nnc2ccccc21 (stereo not given)
    -4.1	3	2.3	-5.4	?	5	1
- COC(=O)N/N=C/c1cn(CCOc2cccc(OC)c2)c2ccccc12
    -3.4	-3	3.0	-0.1	0%	-8	.
- CNC(=O)c1cc2c(ccc3ccccc32)o1
    ?	0	-0.2	0.1	-6%	2	-12
- COc1cccc(CN(C)C(=O)c2cc(S(=O)(=O)N3CCCC3)ccc2C)c1OC
    .	.	-3.1	-1.9	.	-11	-6
- COc1ccccc1-c1nc(SCC(=O)Nc2ccccc2)n[nH]1
    1.7	2	-0.1	4.7	.	-8	0
- S=C(NCCC1=CCCCC1)Nc1ccccc1
    -2.8	-11	4.0	0.4	-5%	0	-1
- COC(=O)c1sccc1NC(=O)CN1CCN(c2ccc(F)cc2)CC1
    0.0	8	0.5	0.2	8%	-9	15
- CCOC(=O)c1sc(N)c(C(=O)OC)c1C
    2.6	25	-3.9	-2.1	.	-3	0
- Cc1nc(NC(=O)c2ccc3c(c2)OCCO3)ccc1Br
    ?	19	2.7	0.2	.	-7	3
- Fc1cccc(F)c1-c1nc(-c2ccncc2)no1
    ?	-13	-0.7	-0.8	.	-4	-1
- O=C(NCc1ccccc1)c1c(O)c2cccc3c2n(c1=O)CCC3
    3.6	-2	-5.0	1.0	-3%	-4	2
- Cc1ccc(S(=O)(=O)CC(=O)Nc2nnc(C(C)C)s2)cc1
    5.4	-6	3.1	2.9	.	3	0
- Cc1ccc(C(=O)N2CCN(CCNC(=O)C(=O)NC(C)C)CC2)cc1
    -1.7	0	0.0	1.9	.	0	-2
- Cc1nc2ccccn2c1-c1nnco1
    -0.7	-2	1.3	-1.7	0%	-1	-11
- COc1ccc(C)cc1S(=O)(=O)N1CCCC(C(=O)NCc2ccccn2)C1 (stereo not given)
    -2.5	5	-4.1	-2.2	.	3	-2
- CCOC(=O)C1=C(N)OC2=C(C(=O)CC(C)(C)C2)C1c1cc(CSc2nnnn2C)cs1 (stereo not given)
    -1.6	-11	-1.0	0.7	.	-5	4

Random draw from the library; 6.3% or so of the library scored in one or more.
